Vaccinia Venus = qHTS for Stage-Specific Inhibitors of Vaccinia Orthopoxvirus: Venus Reporter Primary qHTS. hit rate 0.46% among 330,000. Potency, µM (doses to about 36.5 µM), inactives show top-dose activity change, negative = inhibition, most hits filed as inhibitors. AID 720580, 2013. Vaccinia virus Venus reporter expression, fluorescence; active means well fitted inhibition curve with a large enough effect; inconclusive means small, poorly fitted or top-dose-only effect; inactive means no such curve, though single readings can be large or run the other way; tested in A549 cells; also: nearly all actives have a fitted effect of over 30% in size; inactives centre near -10
Vaccinia mCherry = qHTS for Stage-Specific Inhibitors of Vaccinia Orthopoxvirus: mCherry Reporter Primary qHTS; hit rate 0.63% among 310,000; Potency, µM (series often up to 36.5 µM), for the others: at the top dose activity change, negative = inhibition, most hits filed as inhibitors; AID 720579, 2013; Vaccinia virus mCherry reporter infection, fluorescence; about a quarter of the inactives have no number; active = well fitted inhibition curve with a large enough effect; inconclusive = small, poorly fitted or top-dose-only effect; inactive = no such curve, though single readings can be large or run the other way; tested in A549 cells; also: nearly all actives have a fitted effect of over 35% in size; inactives centre near -10
* = called active by the depositor; i = inactive; u = inconclusive; x = no result given; [ ] = another dose, or the depositor's remark. % is scaled to controls: 0 for no effect and ±100 for the full control effect; potency is read from the fitted curve at half-maximal effect.

A first look, five compounds:
Values run as follows: Vaccinia Venus | Vaccinia mCherry
1. CCOc1ccc(NC(=O)Cn2cc(C(C)=O)c3ccccc32)cc1
  -5% | i
2. Cc1ccccc1NC(=O)CN1CCc2ccccc2C1
  -4% | i
3. COc1ccc2oc(=O)c(-c3nc(-c4cc(OC)c(OC)c(OC)c4)no3)cc2c1
  -3% | -8%
4. Cc1ccccc1C(=O)Nc1nnc(S(=O)(=O)N2CCCc3ccccc32)s1
  -3% | -9%
5. COCCOC(=O)C1=C(C)NC2=C(C(=O)CCC2)C1c1cc2c(cc1Br)OCO2 (centres undefined)
  -18% | -20%

This part in full, repeating the preview:
Values run as follows: Vaccinia Venus | Vaccinia mCherry
1. CCOc1ccc(NC(=O)Cn2cc(C(C)=O)c3ccccc32)cc1
  -5% | i
2. Cc1ccccc1NC(=O)CN1CCc2ccccc2C1
  -4% | i
3. COc1ccc2oc(=O)c(-c3nc(-c4cc(OC)c(OC)c(OC)c4)no3)cc2c1
  -3% | -8%
4. Cc1ccccc1C(=O)Nc1nnc(S(=O)(=O)N2CCCc3ccccc32)s1
  -3% | -9%
5. COCCOC(=O)C1=C(C)NC2=C(C(=O)CCC2)C1c1cc2c(cc1Br)OCO2 (centres undefined)
  -18% | -20%
6. CN(C)S(=O)(=O)c1cccc(C(=O)NCC2CCCO2)c1 (centres undefined)
  -18% | x
7. O=S(=O)(NCC(c1ccco1)N1CCN(c2ccccc2)CC1)c1ccccc1 (centres undefined)
  -5% | -11%
8. O=C1NC2(CCCCC2)C(=O)N1CC(=O)N1CCc2ccccc21
  0% | -7%
9. COc1ccccc1CN1CCN(C2CCN(C(=O)NC(C)C)CC2)C(=O)C1=O
  -1% | -2%
10. Cc1ccc(-c2csc3nc[nH]c(=S)c23)cc1
  -27% | -10%
11. Cc1cc(NC(=O)CCSc2ccc(Cl)cc2)no1
  10% | i
12. CCCCNC(=O)Nc1ccccc1C(=O)NCc1ccco1
  -3% | i
13. COc1ccc(S(=O)(=O)NCc2ccco2)cc1N(C)S(=O)(=O)c1ccccc1
  -1% | -11%
14. O=C(NNC(=O)C1CCN(Cc2cccc(F)c2)CC1)c1cccs1
  -6% | -23%
15. CC(C)c1ccccc1NC(=O)COC(=O)COc1ccccc1[N+](=O)[O-]
  0% | -5%
16. NC(=O)c1ccccc1OCC(=O)O
  -14% | x
17. O=[N+]([O-])c1ccc(NN=C(c2ccccc2)c2ccccc2)nc1
  -2% | -6%
18. Cc1ccsc1C(=O)N1CCN(S(=O)(=O)c2cccc(F)c2)CC1
  -3% | -9%
19. COC(=O)C1=C(C)N(Cc2ccccc2)C(=NCCCOC(C)C)N[C@H]1c1ccccc1
  -21% | -13%
20. COc1ccc(Cl)cc1N(C(=O)Nc1cccc(Cl)c1)C1=NCC(C)S1 (centres undefined)
  -9% | -9%
21. CCOC(=O)c1cc2sc(C)cc2n1CC(=O)N1CCN(C(=O)c2ccco2)CC1
  -8% | i
22. Cc1ccc(S(=O)(=O)N(C)c2ccc(OCC(=O)Nc3nc4ccccc4s3)cc2)cc1
  -26% | u
23. CC(NC(=O)c1ccccc1F)c1nnc(SCC(=O)NC2=NCCS2)n1C (centres undefined)
  -3% | i
24. N#Cc1ccc(NC(=O)Cn2cnc([N+](=O)[O-])c2)cc1
  -13% | i
25. O=C(CC(NC(=O)c1ccccc1)c1ccccc1)Nc1ccc(F)c(F)c1 (centres undefined)
  -7% | u
26. CC1=C(C(=O)OCc2ccccc2)C(c2ccccc2Cl)NC(=O)N1CCCCCC(=O)O (centres undefined)
  -6% | -8%
27. CC(C)(C)OC(=O)N1CCC[C@@H]1C(=O)NCc1ccccc1Cl
  -9% | -8%
28. COc1cccc(CN(CC(=O)NCc2ccccc2)C(=O)c2csnn2)c1
  4% | -20%
29. COc1cc(OC)cc(-c2c(-c3ccc(F)cc3)c3cc(Br)ccc3n2C)c1
  0% | -6%
30. Cc1cc(C)n(-c2nc(C(F)(F)F)nc3ccccc23)n1
  u | 0%

Exported with each value named: entries from further up
4. Cc1ccccc1C(=O)Nc1nnc(S(=O)(=O)N2CCCc3ccccc32)s1
  Vaccinia Venus: -3% | Vaccinia mCherry: -9%

5. COCCOC(=O)C1=C(C)NC2=C(C(=O)CCC2)C1c1cc2c(cc1Br)OCO2 (centres undefined)
  Vaccinia Venus: -18% | Vaccinia mCherry: -20%

(list continues)
Values run as follows: Vaccinia Venus | Vaccinia mCherry
31. Cc1cccc(OCCCC(=O)Nc2ccc(S(=O)(=O)Nc3onc(C)c3C)cc2)c1
  2% | x
32. COc1cccc(C(=O)N2CCCC(c3nc(SCCN4CCOCC4)ncc3C)C2)c1 (centres undefined)
  -3% | -9%
33. CCN1C(=O)CSC1=Nc1ccc(C(=O)O)cc1
  -13% | i
34. CCc1ccc2c(c1)NC(=O)C2(C)Cc1ccccc1 (centres undefined)
  -18% | -17%
35. COC(=O)[C@]12CCCCC=C1N(Cc1ccc(Cl)cc1Cl)C(=O)[C@H](CC(=O)N1CCC(c3ccccc3)CC1)C2
  -8% | 9%
36. Cc1nnc(NC(=O)Cc2cccs2)s1
  -2% | -4%
37. CN(C)S(=O)(=O)c1ccc(N/C=C(\[N+](=O)[O-])S(=O)(=O)c2ccccc2)cc1
  7% | -13%
38. O=C(NCC1CCCO1)c1cccc2ccccc12 (centres undefined)
  -9% | 4%
39. COc1ccc(Nc2nc(N3CCCCC3)c3ccccc3n2)cc1
  u | u
40. CCCOc1ccc(C(=O)Nc2ccccc2[N+](=O)[O-])cc1
  -22% | u
41. CCCCCC(C)n1[nH]c(=O)cc1N (centres undefined)
  -14% | -12%[1.46 µM]
42. CSc1cccc(NC(=O)COc2cccc3ccccc23)c1
  -21% | i
43. COc1cc2c(cc1OC)C(C(=O)NCc1cccnc1)C(c1cccnc1)N(C)C2=O (centres undefined)
  -16% | i
44. CN(CC(=O)N1CCN(c2ccccc2F)CC1)S(=O)(=O)c1cnc[nH]1
  -15% | -27%
45. CCOC(=O)[C@H]1[C@H]2COc3ccc(C)cc3[C@@H]2N2C(=O)CN(Cc3ccc(F)cc3)C(=O)[C@@]12C
  -9% | i
46. O=C(NNS(=O)(=O)c1ccccc1[N+](=O)[O-])c1ccncc1
  -1% | i
47. CCCNC(=O)C[C@@H]1CC[C@@H]2[C@H](COC[C@H](O)CN2C(=O)c2cc(Cl)cc(Cl)c2)O1
  -4% | i
48. O=C(NNc1cccc(Cl)n1)Nc1ccc(F)cc1
  -9% | -18%
49. Cc1ccc(C)c(SCC(=O)Nc2cc(S(=O)(=O)N3CCOCC3)ccc2C)c1
  -21% | -30%
50. COc1ccc(C)cc1NC(=O)C(CCSC)NS(=O)(=O)c1ccc2c(c1)oc(=O)n2C (centres undefined)
  -5% | -13%
51. Cc1ccc2c(C)c(C(=O)N(Cc3ccc(Cl)cc3)C3CCS(=O)(=O)C3)oc2c1 (centres undefined)
  -24% | -25%
52. O=C(NCCCN1CCCCC1)c1ccc(CS(=O)c2ccc(Cl)cc2)o1 (centres undefined)
  -19% | -12%
53. CCOC(=O)c1cc([N+](=O)[O-])sc1NC(=O)c1ccc(S(=O)(=O)N2CC3(C)CC2CC(C)(C)C3)cc1 (centres undefined)
  -24% | -25%
54. COc1ccc(NC(=O)/C(C#N)=C\c2cc(C)n(-c3ccc(Oc4ccc([N+](=O)[O-])cn4)cc3)c2C)cc1
  -13% | -17%[1.46 µM]
55. CCn1c(SCC(=O)OC(C)C)nnc1-c1ccccc1
  -5% | i
56. O=C(NCCSCc1ccc(Cl)cc1Cl)c1ccc(CN2CCOCC2)cc1
  u | -19%
57. Cc1nn(CCCNC(=O)C2CCCO2)cc1Br (centres undefined)
  -18% | -20%
58. CC(C)Cc1cc(C(=O)Nc2sc3c(c2C#N)CCCC3)no1
  -2% | 3%
59. COc1ccc(NC(=O)Nc2sc3nc4n(c(=O)c3c2C)CCC(C)CC4)cc1OC (centres undefined)
  -8% | -16%
60. Cc1ccc(CNC(=O)CSc2ncccn2)cc1
  -2% | -18%
61. Clc1ccc(Nc2ncnc3ccc(Br)cc23)cc1
  u | u
62. COc1ccc(/C=C/C(=O)NC(=S)Nc2ccc(Br)cn2)cc1
  -5% | i
63. CCOC(=O)/C(=C(/C)N)C1CC(=O)NC1=O (centres undefined)
  2% | i
64. CCOC(=O)c1c(C)oc2c1c(CN1CCN(CCO)CC1)c(O)c1ccccc12
  -20% | -18%
65. COc1ccc(CC(C)Nc2ccccc2F)cc1 (centres undefined)
  -10% | -6%
66. O=C1NCCN1CCNc1nc(NCC2CC2)nc2cc(-c3ccccc3)sc12
  -18% | -20%
67. CC(/C=N/NC(=O)CCn1nnc2ccccc21)=C\c1ccccc1
  6% | i
68. CCOc1ccc(CNC(=O)Cn2cc3c(n2)-c2c(oc(C(=O)N4CCCC4)c2C)CC3)cc1
  -23% | -24%
69. CCOC(=O)C1CC2=C(CCCC2=O)NC1=O (centres undefined)
  -3% | i
70. NC(c1ccccc1)c1cccnc1 (centres undefined)
  -1% | i
71. COc1ccc(OC)c(Nc2ncnc3c2cnn3-c2ccccc2)c1
  -7% | 0%
72. COc1ccc(CCn2c(-c3ccncc3)n[nH]c2=S)cc1OC
  0% | 3%
73. Fc1ccc([C@@H]2CCNC[C@H]2COc2ccc3c(c2)OCO3)cc1
  u | u
74. O=C(CCn1cnnn1)Nc1cc(C(F)(F)F)cc(C(F)(F)F)c1
  -13% | -28%
75. Cc1ccccc1N(C)C(=O)c1noc2c1COc1ccccc1-2
  -6% | -12%
76. CN(C)CCNC(=O)c1cc2ccccc2oc1=O
  0% | x
77. COc1cc(C(=O)N2CCN(c3ccccc3)CC2)c([N+](=O)[O-])cc1OC
  6% | i
78. COc1ccccc1NC(=O)c1ccc2c(c1)CCN2S(C)(=O)=O
  -13% | -5%
79. Nc1nc(Cl)nc2c1ncn2[C@@H]1O[C@H](CO)[C@@H](O)[C@H]1O
  u | u
80. Cc1cc(C(=O)OCC(=O)c2cccs2)c2ccccc2n1
  -3% | i
81. O=C(COc1ccc(Cl)cc1)NCCCNC(=O)c1cccnc1
  -14% | -20%
82. CC(C)(C)OC(=O)N/N=C/c1cccn1-c1ccc([N+](=O)[O-])cc1
  -11% | -24%
83. Cc1cc(F)ccc1S(=O)(=O)N1CCCOC1CNC(=O)C(=O)NCCCN1CCOCC1 (centres undefined)
  -12% | -13%
84. CCOc1ccc(NC(=O)CCN2C(=S)NC(C)(C)CC2C)cc1 (centres undefined)
  5% | -14%
85. COC(=O)c1ccc(C2NC(=O)c3ccccc3O2)cc1 (centres undefined)
  -23% | -21%
86. CC(C)(C)OC(=O)n1cc(CCO)c2ccccc21
  -20% | -28%
87. O=C1CCC(c2ccc3ccccc3c2)O1 (centres undefined)
  -2% | i
88. COc1ccc2nc(NC(=O)C3CCCN(S(=O)(=O)c4c(C)noc4C)C3)sc2c1 (centres undefined)
  -8% | 0%
89. COc1ccc(C)cc1S(=O)(=O)N(C)CC(=O)NC1CCCCC1
  -17% | x
90. COc1ccccc1NS(=O)(=O)c1cc(C(=O)N2CCN(C/C=C/c3ccccc3)CC2)ccc1C
  -23% | -19%

Other results
Values run as follows: Vaccinia Venus | Vaccinia mCherry
91. Nc1nnc(Sc2ncccc2[N+](=O)[O-])s1
  -4% | -4%
92. COc1ccc(CNC(=O)c2ccc(CNS(=O)(=O)c3ccc(OC)cc3)cc2)cc1
  -3% | -11%
93. CC1(C)CN(c2ccccc2)C(=O)[C@H]1CC(=O)Nc1ccccc1
  1% | i
94. CCn1cc([N+](=O)[O-])c(C(=O)Nc2cc(C)on2)n1
  -5% | x
95. O=C(c1cccnc1)c1cc2ccccc2[nH]1
  -2% | -7%
96. COc1ccccc1C(=O)Nc1nc2cc3c(cc2s1)OCCO3
  u | -7%
97. COc1ccc(-c2nnc(SCCc3ccccc3)n2N)cc1
  -12% | -3%
98. COc1cc(/C=C/c2nc3cc(Cl)ccc3c(=O)n2-c2cccc(C(F)(F)F)c2)cc(OC)c1OC
  -9% | -9%
99. CCN(CCNC(=O)CN1CCN(Cc2ccc(Cl)cc2)C1=O)c1ccccc1
  -20% | x
100. CCCCc1nc2cc(C(=O)N3CCN(c4cnccn4)CC3)ccc2o1
  -12% | -14%
101. Cc1ncoc1C(=O)NCCC(c1ccccc1)c1ccccc1
  -16% | -7%
102. CCCCC(=O)NC(=S)NNC(=O)CC
  -6% | -11%
103. COc1ccc(S(=O)(=O)Nc2cc(C)ccc2OC)cc1C
  -18% | x
104. Cn1ccc2c(-c3cncc4ccccc34)cc3c(c21)C1CCC3O1 (centres undefined)
  -13% | 14%
105. CC(C)c1ccc(/C=C2\SC(=S)N(CC(=O)NCCCN3CCOCC3)C2=O)cc1
  11% | 13%
106. Cn1c(Oc2ccc3c(c2)OCO3)nc2c1c(=O)n(Cc1ccccc1)c(=O)n2C
  -14% | -12%
107. CSc1nc2nc(-c3cccs3)cc(C(F)(F)F)c2c(=O)[nH]1
  -2% | -12%
108. CCC(CO)Oc1cc(NC(=O)c2cccc([N+](=O)[O-])c2)c2ncn(C(C)C)c2c1 (centres undefined)
  -12% | -18%
109. Cc1ccccc1NC(=O)CSC1=Nc2ccccc2C2=NC(CCC(=O)NCc3ccccc3)C(=O)N12 (centres undefined)
  0% | -6%
110. COc1ccc(CC(N)c2csc(NC(=O)Nc3cccc(C(F)(F)F)c3)n2)cc1 (centres undefined)
  14µM* | u
111. Cc1oc(CC(C)C)c(CN)c1C(=O)O
  -7% | -10%
112. CC(Sc1nnc(-c2ccccc2Br)n1-c1cccc(C(F)(F)F)c1)C(N)=O (centres undefined)
  -7% | i
113. CCCn1c2ccccc2c2cnn(CC(=O)O)c(=O)c21
  2% | -14%
114. S=C(NCCc1ccccc1)N1CCN(C2CCCCC2)CC1
  -8% | -2%
